CtBP-E1A inh: CtBP/E1A binding inhibition | AlphaScreen GST-E1A/His-CtBP binding, 1536-well; stronger effect = lower value; control for the full effect not named in the record | activity change, % (no concentration beside the values) | hit rate 0.49% among 340,000 | AID 651724; in the data active means activity change below about -65%; inconclusive means about -30% to -65%; inactive means above about -30%; also: % is scaled to controls: 0 for no effect and ±100 for the full control effect; compound concentration not given in the record
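GST-E1A and His-tagged CtBP (125 nM each as 5X stock) were preincubated with pin-transferred compound for 2 h at 37 °C in the dark, then glutathione donor and nickel acceptor beads were added for 1 h before AlphaScreen reading.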
TRPV1 potentiator: potentiators of human vanilloid receptor 1 (TRPV1) | Q8NER1 | TRPV1-expressing cells, Fluo-8 calcium influx, capsaicin EC20 potentiation; host cell line not named in the record; control for the full effect not named in the record | potentiation, % at 8.33 µM | hit rate 0.02% among 320,000; active means potentiation above 80%; inconclusive means 30% to 80%; inactive means below 30%; also: 0% is about no effect
Target sequence (Q8NER1 whole entry, looked up): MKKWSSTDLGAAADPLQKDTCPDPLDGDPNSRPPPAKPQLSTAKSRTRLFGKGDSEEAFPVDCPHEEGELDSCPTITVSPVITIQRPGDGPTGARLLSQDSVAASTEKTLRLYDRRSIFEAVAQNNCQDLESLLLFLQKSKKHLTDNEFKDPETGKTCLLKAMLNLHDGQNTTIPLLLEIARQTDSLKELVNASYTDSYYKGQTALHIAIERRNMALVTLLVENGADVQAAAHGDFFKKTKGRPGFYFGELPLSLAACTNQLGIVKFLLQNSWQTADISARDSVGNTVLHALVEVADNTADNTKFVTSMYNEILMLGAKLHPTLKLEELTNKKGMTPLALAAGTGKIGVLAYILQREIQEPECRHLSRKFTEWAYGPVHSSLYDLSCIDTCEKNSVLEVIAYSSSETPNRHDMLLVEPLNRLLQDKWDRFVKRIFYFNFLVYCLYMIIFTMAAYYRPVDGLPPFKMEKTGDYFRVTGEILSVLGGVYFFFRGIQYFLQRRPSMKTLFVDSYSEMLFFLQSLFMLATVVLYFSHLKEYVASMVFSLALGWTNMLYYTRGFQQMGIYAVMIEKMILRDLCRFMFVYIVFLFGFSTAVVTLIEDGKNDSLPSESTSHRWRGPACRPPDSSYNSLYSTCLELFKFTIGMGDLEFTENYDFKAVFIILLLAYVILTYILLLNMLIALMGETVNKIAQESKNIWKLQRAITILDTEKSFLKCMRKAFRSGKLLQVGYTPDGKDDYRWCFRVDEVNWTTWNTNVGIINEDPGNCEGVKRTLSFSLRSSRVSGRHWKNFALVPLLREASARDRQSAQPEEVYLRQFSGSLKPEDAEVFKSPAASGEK
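Fluo-8 calcium influx in TRPV1-expressing cells, kinetic read (ex 480/em 520 nm). Compound added and read 3 min for agonist activity, followed by capsaicin at EC20 final and 2 min further read for enhancement.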
Sfp inh: Sfp phosphopantetheinyl transferase inhibition. AID 1490. hit rate 3.5% among 310,000. Q9F4F7. Potency, µM, for inactives: max response, negative = inhibition, actives largely listed as inhibitors. Biochemical Sfp PPTase activity, qHTS; active = well fitted inhibition curve with a large enough effect; inconclusive = small, poorly fitted or top-dose-only effect, or another doubt; inactive = no such curve, though single readings can be large or run the other way;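 also: the enzyme is Sfp with the accession as filed and its product quenches rhodamine fluorescence; potency is read from the fitted curve at half-maximal effect; 0% = enzyme reaction without inhibitor and -100% = no enzyme wells; top concentration of the series not given in the record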
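Compounds were incubated with enzyme (final 15 nM) for 15 min at room temperature before substrate addition started the reaction. Fluorescence at 525 nm excitation, 598 nm emission was recorded immediately and after 30 minutes.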
gsp ag: activates gsp, the McCune-Albright syndrome mutation. gsp mutant cells, cAMP HTRF, 30 min; control for the full effect not named in the record. Potency, µM (doses to about 76.9 µM), for the others: at the top dose activation (cAMP increase), usual class: activators. hit rate 0.13% among 340,000. AID 624287; active = well fitted activation curve with a large enough effect; inconclusive = small, poorly fitted or top-dose-only effect, or another doubt; inactive = no such curve, though single readings can be large or run the other way; cell line not stated here;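 also: phosphodiesterase inhibitor Ro 20-1724 added with compounds to block cAMP breakdown; potency is read from the fitted curve at half-maximal effect; nearly all actives have a fitted effect of over 60% in size; about a fifth of the inactives were tested at one dose only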
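Cells in DMEM/10% FBS with G418 were pretreated with compounds in DMSO plus […] (300 uM stock) for 30 min at 37C. cAMP was measured by HTRF (cAMP-d2 plus anti-cAMP antibody-K) after 30 min at room temperature.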
gsp antagonist: antagonists of gsp mutant (McCune-Albright syndrome). gsp-mutant cells, cAMP HTRF, 30 min; control for the full effect not named in the record. hit rate 0.4% among 340,000. Potency, µM (top dose mostly 76.9 µM), without a hit: at the highest dose activity change, negative = inhibition, most hits filed as inhibitors; active = falling curve of any shape with a large fitted effect; inconclusive = falling curve, mostly with a smaller effect; inactive = flat or rising curve; cell line not stated here;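 also: intracellular cAMP measured with PDE inhibitor Ro 20-1724 present during compound exposure; potency is read from the fitted curve at half-maximal effect; % is scaled to controls: 0 for no effect and ±100 for the full control effect; nearly all actives have a fitted effect of over 65% in size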
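G418-selected cells were plated in DMEM/10% FBS for 16-24 h at 37C, then treated with compounds plus the PDE inhibitor […] (300 uM solution added) for 30 min at 37C. Intracellular cAMP was measured by HTRF after 30 min lysis at room temperature.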
Menin-MLL FL inh: displaces fluorescein MLL peptide from human menin; Fluorescence polarization, fluorescein-MLL peptide displacement from menin; AID 1766; FP activity change, % at 61.4 µM; 290,000 tested, under 10 active; inconclusive = falling polarisation curve, or a change in total fluorescence; inactive = total fluorescence flat and polarisation flat or rising; no compound was filed as active; the % refers to the polarisation; negative = inhibition;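 also: % of control where 0% means no effect; inhibitors lower the polarisation; unlabelled MLL peptide was the positive control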
ClpP mod: qHTS Assay for Activators of ClpP; ATP-dependent Clp protease proteolytic subunit (Bacillus subtilis (strain 168)), P80244; purified B. subtilis ClpP, FRET peptide cleavage, 20 min; hit rate 1.9% among 340,000; AID 651965, 2013; Potency, µM (highest dose often 57.5 µM), without a hit: at the highest dose activity change, negative = active; active = well fitted falling curve with a large enough effect; inconclusive = small, poorly fitted or top-dose-only effect; inactive = no such curve, though single readings can be large or run the other way; also: potency is read from the fitted curve at half-maximal effect; the source files actives as falling curves though it sought activators and does not explain the sign; nearly all actives have a fitted effect of over 65% in size; many hits overshoot -100%
Target sequence (P80244 whole entry, looked up): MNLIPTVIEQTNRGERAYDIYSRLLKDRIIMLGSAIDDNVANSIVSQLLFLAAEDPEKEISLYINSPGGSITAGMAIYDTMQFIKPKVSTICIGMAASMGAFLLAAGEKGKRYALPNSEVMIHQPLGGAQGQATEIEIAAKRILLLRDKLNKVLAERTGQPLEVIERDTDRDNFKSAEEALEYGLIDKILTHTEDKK
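ClpP 10 microg/mL final, pH 8 Tris/KCl buffer with BSA, glycerol, Tween-20; compound pinned in; FRET-FV substrate; RT 20 min; Ex320/Em430; ΔFRET vs ADEP 5.8 microM, DMSO, no enzyme.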
Active calls of the source: *; ? = inconclusive; nt = not tested or not shown; & = joins results of further samples; [ ] = dose if it differs, or a comment. This is a random part of the collection; any-hit rate near 5.3%.

SMILES,TRPV1 potentiator,ClpP mod,CtBP-E1A inh,Menin-MLL FL inh,gsp antagonist,gsp ag,Sfp inh
COc1cccc(OC)c1C(=O)Nc1ccnn1C,5,-0.9%,nt,-1.1,8%,2%,17%
COc1cccc(OC)c1C(=O)OCc1c(-c2ccccc2)ncc2ccccc12,nt,-17%,nt,nt,-3%,2%,nt
O=C(COC(=O)c1ccc2ncsc2c1)NC(=O)NCc1ccccc1,-11,0.6%,-8,1.7,-1%,0%,8%
CC(=Nc1ccc(C)c(C)c1)C1=C(O)CCC1=O,-11,-1.6%,0,9.0,3%,16%,1%
COc1cccc(OCC(O)CN2CCC(Cc3ccccc3)CC2)c1 (stereo not given),-1,1.3%,-3,-0.6,3%[15.4 µM],-13%,-1%
O=[N+]([O-])c1cc([N+](=O)[O-])c(Oc2cc(Cl)cc(Cl)c2)cc1NN1CCCCC1,-12,2.1%,-4,nt,-2%,-3%,nt
Cc1nn(C)c(C)c1CNC(=O)/C=C/c1ccccc1F,3,-13%,0,6.4,8%,19%,17%
CCC(=O)Nc1c2c(nn1-c1ccccc1)CSC2,0,0.4%,nt,4.0,-5%,-21%,13%
Cc1csc(NC(=O)c2ccco2)n1,5,22µM*,-2,5.6,0%,9%,16%
COc1ccc2cc(C(=O)NCc3ccco3)c(=O)oc2c1,-3,10µM*,-1,1.5,11%,?,-1%
CSc1cccc(NC(C)=O)c1,-1,-8.1%,0,3.0,13%,-1%,1%
O=C(CN1C(=O)NC2(CCCC2)C1=O)Nc1ccc(C(F)(F)F)cc1,-16,nt,-6,-2.7,1%,22%,8%
NS(=O)(=O)c1ccc(Nc2ccccc2)c([N+](=O)[O-])c1,3,-0.7%,nt,-4.9,-2%,-25%,27%
O=C(O)C1C2CCC(O2)C1C(=O)Nc1ccc(Cl)cc1F (stereo not given),9,nt,2,-2.9,3%,21%,16%
O=C(c1ccccc1C(=O)N1CCN(c2ccc(F)cc2)CC1)N1CCN(c2ccc(F)cc2)CC1,24,-2.8%,-4,-16,-3%,-3%,3%
COc1ccccc1C(=O)NCCC(=O)OCC(=O)Nc1ccc(S(N)(=O)=O)cc1,9,-1.3%,1,nt,19%,1%,nt
C#CCNC(=O)c1ccc(OCc2ccccc2)cc1Cl,-27,nt,13,2.8,-2%,-6%,-2%
COc1ccc(/C=N\NC(=O)c2ccc([N+](=O)[O-])c(C)c2)cc1COc1ccccc1C(N)=O,28,0.5%,-22,nt,-6%,7%[15.4 µM],1%
Cc1cccc(C)c1NC(=O)Cn1c(=O)n(CCCC(=O)NC2CCN(Cc3ccccc3)CC2)c(=O)c2ccccc21,-1,nt,0,-3.5,4%,5%[15.4 µM],22%
COc1cc(Cl)cc(C=O)c1OCC(=O)O,1,nt,13,1.1,8%,?,26%
CN(C)CCCN(C(=O)c1cc2ccccc2oc1=O)c1nc2c(F)cccc2s1,-27,3.7%,-7,1.8,23%,19%,2%
COC(=O)c1cc2ccccc2c(=O)s1,13,-0.5%,3,0.4,0%,2%,1%
COCCCNC(=O)Cn1ccc(NC(=O)OCc2ccccc2)nc1=O,12,-3.6%,-8,nt,-3%,nt,nt
CCOC(=O)CSc1ncc(OC)c(=O)[nH]1,0,-0.6%,6,2.1,7%,-4%,-5%

Record cards, from the list above. Values in the order: TRPV1 potentiator	ClpP mod	CtBP-E1A inh	Menin-MLL FL inh	gsp antagonist	gsp ag	Sfp inh
`COc1ccccc1C(=O)NCCC(=O)OCC(=O)Nc1ccc(S(N)(=O)=O)cc1` reads 9	-1.3%	1	nt	19%	1%	nt
`CN(C)CCCN(C(=O)c1cc2ccccc2oc1=O)c1nc2c(F)cccc2s1` reads -27	3.7%	-7	1.8	23%	19%	2%

Carrying on:
SMILES,TRPV1 potentiator,ClpP mod,CtBP-E1A inh,Menin-MLL FL inh,gsp antagonist,gsp ag,Sfp inh
CS(=O)(=O)N(Cc1ccccc1)c1ccc(C(=O)NCc2ccccc2)cc1,-7,-4.2%,1,0.9,9%,6%,23%
CC(C(=O)Nc1cc([N+](=O)[O-])ccc1Cl)N1CCN(c2ccccc2)CC1 (stereo not given),8,nt,-8,4.6,14%,31%,5%
Cc1ccc(S(=O)(=O)Nc2ccc(S(=O)(=O)NC(C)(C)C)cc2)cc1,17,-1.7%,-3,0.0,13%,-4%,3%
Cc1cccc(NC(=O)C2CCCN(S(=O)(=O)c3ccc4[nH]c(=O)ccc4c3)C2)c1 (stereo not given),-21,0.4%,0,-1.8,-4%,?,25%
N/C(=N\OC(=O)c1ccc(Cl)c(Cl)c1)c1ccccn1,-16,-0.3%,6,2.7,-3%,-2%,9%
O=C(OCC(=O)N1CCN(C(=O)c2ccco2)CC1)c1ccccc1C(=O)c1ccccc1,7,0.9%,4,1.8,-2%,-6%,5%
CC(C)(C)c1ccc(NC(=O)N2CCCN(c3c(Cl)cncc3Cl)CC2)cc1,-38,nt,-12,0.4,-23%,6%,10%
CN(C(=O)CSC1=NC2C(N=N1)c1cc(Br)ccc1N2C)C1CCCCC1 (stereo not given),2,-0.8%,1,0.0,19%,-4%,13%
Cc1noc(C)c1CCC(=O)N1CCCC(CCC(=O)NCc2ccccc2F)C1 (stereo not given),3,nt,-11,2.6,-6%,-7%,12%
COC(=O)[C@@]1(Cc2ccc(F)cc2)[C@H]2c3cc(C(=O)N(C)C)n(Cc4ccccc4)c3C[C@H]2CN1C(=O)c1ccccc1,8,5.0%,-5,?,-18%,nt,-9%&-18%
Fc1ccccc1Sc1ccccc1CNC1=NCCN1,17,1.8%,-1,-1.6,11%,?,-12%
CC(C)CC(=O)Nc1ccc2oc(-c3ccncc3)nc2c1,-6,?,-3,0.5,5%,-2%,18%
O=C(CCCn1c(=S)[nH]c2ccsc2c1=O)NCc1ccco1,4,-1.5%,-4,5.5,-11%,15%,?
COc1cccc(-c2nn(C)c3sc(C(=O)NCc4ccco4)cc23)c1,1,22µM*,?,-3.3,11%,?,8%
O=C(NCCc1ccccc1)C1CCCN1C(=O)Nc1ccc(F)cc1 (stereo not given),26,13%,10,-0.2,4%,-18%,?
CCn1c(SCc2ccc(C)cc2)nnc1C1CCN(S(=O)(=O)c2ccc(OC)cc2)CC1,-4,0.1%,2,0.4,-22%,-21%,13%
CCOC(=O)C1CCN(C(=O)c2cccc(S(=O)(=O)N3CCCc4ccccc43)c2)CC1,nt,nt,0,nt,?,-14%[15.4 µM],nt
C=CCN(CC=C)CC(=O)Nn1c(C)ccc1C,nt,-0.2%,10,nt,7%,-2%[15.4 µM],nt
COc1cc2c(C(=O)N3CCN(c4ccccc4C)CC3)c(C)oc2cc1Br,-2,-1.5%,0,-1.9,-3%,-18%,7%
COc1ccc(-c2cc(C(=O)Nc3cc(C)on3)c3ccccc3n2)c(OC)c1,22,-18%,-7,nt,0%,16%[15.4 µM],-13%
C/C(CC(=O)Nc1ccc2c(c1)OCCO2)=N\NC(=O)COc1ccc(C)cc1,27,nt,0,-4.2,0%,?,4%
CCn1ccnc1CNC(=O)CC1C(=O)NCCN1Cc1ccc(OC)cc1OC (stereo not given),-2,-3.0%,0,-2.6,2%,-8%,-18%
c1ccc(N2CCN(CC3CCCCC3)CC2)cc1,-6,0.8%,-18,2.2,3%,19%,-2%
CN(C)c1nc(N)c([N+](=O)[O-])c(N2CCCCCC2)n1,-24,0.9%,0,0.1,-2%,-1%,1%

5 compounds from above, ordered by their value in Menin-MLL FL inh, descending.
SMILES	Menin-MLL FL inh
O=C(CCCn1c(=S)[nH]c2ccsc2c1=O)NCc1ccco1	5.5
c1ccc(N2CCN(CC3CCCCC3)CC2)cc1	2.2
CN(C)c1nc(N)c([N+](=O)[O-])c(N2CCCCCC2)n1	0.1
O=C(NCCc1ccccc1)C1CCCN1C(=O)Nc1ccc(F)cc1 (stereo not given)	-0.2
CCn1ccnc1CNC(=O)CC1C(=O)NCCN1Cc1ccc(OC)cc1OC (stereo not given)	-2.6

Additional results follow:
SMILES,TRPV1 potentiator,ClpP mod,CtBP-E1A inh,Menin-MLL FL inh,gsp antagonist,gsp ag,Sfp inh
CC1CCCCC12NC(=O)N(CC(=O)OCc1ccccc1F)C2=O (stereo not given),nt,3.1%,1,nt,-3%,3%,nt
CC(C)NC(=O)Nc1ccc2c(c1)C(=O)N([C@H](C)CO)C[C@H](C)[C@@H](CN(C)Cc1ccc3c(c1)OCO3)OCCCC[C@@H](C)O2,nt,-2.6%,5,nt,nt,-59%[inhibitor],nt
CCN1CCN(C(c2cc3cccc(C)c3[nH]c2=O)c2nnnn2Cc2ccccc2)CC1 (stereo not given),1,?,-12,-0.1,8%,7%,-14%
COc1ccc(NC(=O)c2nn(C34CC5CC(CC(C5)C3)C4)cc2[N+](=O)[O-])cc1,28,0.7%,0,3.3,1%,-19%,1%
O=C(c1cc(F)c(F)c(F)c1F)N1CCN(Cc2ccc3c(c2)OCO3)CC1,-18,0.1%,7,-4.2,11%,?,10%
CC(C)(C)OC(=O)N[C@@H](Cc1ccccc1)c1nnc(SCC(=O)c2ccc(Cl)cc2)o1,-12,0.0%,7,3.6,-5%,-18%,1%
c1ccc(-c2ccc(-c3ccncn3)cc2)cc1,nt,nt,8,nt,4%,22%,nt
